EPAC2 agonist: agonists of human EPAC2 (RAPGEF4). EPAC2 activation, biochemical qHTS; response scale: 100% = 6.5 mM cAMP response. Potency, µM (doses to about 154 µM), for the others: at the highest dose activation, most hits filed as activators. hit rate 0.079% among 360,000; note: potency is the fitted concentration of half-maximal effect; nearly all actives have a fitted effect of over 50% in size
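qHTS, titration series. 100 nM EPAC2 / 250 nM Rap1B-BODIPY-GDP / 50 uM GDP; RT; ex 480/em 540 nm, 5-min reads to 30 min. Norm. to 6.5 mM cAMP = activation.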
pAkt inh: blocks phosphorylation of Akt. Neuro2A IGF-stimulated pAkt S473 HTRF, 20 min; stronger effect = lower value. activity change, % for hits at 50 µM. hit rate 0.32% among 360,000; in the data active = activity change below about -80%; note: % is set by controls: 0 for no effect and ±100 for the full control effect
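Neuro2A cells in DMEM with 0.5% FBS, overnight at 37 deg C, given compound at single 50 µM final, then IGF (6 nM final) for 20 min at 37 deg C. Lysed; phospho-Akt Ser473 by HTRF after 24 h, 665/615 ratio.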
EPAC2 antag: blocks human EPAC2 exchange factor; EPAC2 GEF exchange of Rap1B-BODIPY-GDP, fluorescence; Potency, µM (doses to about 114 µM), for the others: at the highest dose activity, negative = inhibition, hits mostly inhibitors; hit rate 0.18% among 360,000; AID 720708; note: potency is the fitted concentration of half-maximal effect; % is set by controls: 0 for no effect and ±100 for the full control effect; nearly all actives have a fitted effect of over 45% in size; many of its hits are not listed in these tables
The depositor's hits bear a star; i = inactive; nt = not tested or not shown; & = joins results of further samples. Unless noted, calls come from the whole dose curve; as a rule, active = well fitted curve in the direction sought with a large enough effect; inconclusive = small, poorly fitted or top-dose-only effect, or another doubt; inactive = no such curve, though single readings can be large; an effect the other way counts as inactive or inconclusive.

item | smiles | EPAC2 agonist | pAkt inh | EPAC2 antag
1 | COc1ccccc1C(=O)NNC(=S)NC(=O)c1ccco1 | 9% | i | -6%
2 | O=C1NC(=S)SC1=Cc1ccccn1 | 8% | i | -30%
3 | COc1cccc(N2CCN(CC(=O)Nc3ccc(-n4cnnn4)cc3)CC2)c1 | 4% | i | 2%
4 | CCOC(=O)c1c(C)oc2ccc(O)cc12 | 5% | i | -2%
5 | NCCCC(=O)O | 0% | i | 15%
6 | Cc1nn(-c2ccccc2)c(Cl)c1/C=N/NC(=O)c1ccncc1 | 3% | i | 1%
7 | CC(C)(C)c1ccc(-n2ncc3c2CCCC3NC(=O)CCN2CCCC2=O)cc1 (stereo not given) | -2% | nt | 12%
8 | COc1ccc(C[C@H](C)NC[C@@H](O)c2ccc(O)c(NC=O)c2)cc1 | -1% | i | -6%
9 | CN[C@H]1CC[C@@H](c2ccc(Cl)c(Cl)c2)c2ccccc21 | -1%&0% | i | -9%&-4%
10 | O=C(O)C1CCN(S(=O)(=O)/C=C/c2ccccc2)CC1 | -2% | i | 9%

Three entries from above, arranged by formula weight, lowest first:
item | smiles | EPAC2 agonist | pAkt inh | EPAC2 antag
10 | O=C(O)C1CCN(S(=O)(=O)/C=C/c2ccccc2)CC1 | -2% | i | 9%
1 | COc1ccccc1C(=O)NNC(=S)NC(=O)c1ccco1 | 9% | i | -6%
6 | Cc1nn(-c2ccccc2)c(Cl)c1/C=N/NC(=O)c1ccncc1 | 3% | i | 1%

Entries of single compounds, looked up by structure. Values in the order: EPAC2 agonist	pAkt inh	EPAC2 antag
NCCCC(=O)O in the list: 0%	i	15%
COc1ccccc1C(=O)NNC(=S)NC(=O)c1ccco1 in the list: 9%	i	-6%
CCOC(=O)c1c(C)oc2ccc(O)cc12 in the list: 5%	i	-2%
O=C(O)C1CCN(S(=O)(=O)/C=C/c2ccccc2)CC1 in the list: -2%	i	9%

High-throughput results (PubChem)

A portion of the library; count on the stated rates, not on these rows.
